Screening data from PubChem.
VACV E9 pol inh – vaccinia E9 polymerase processive synthesis inhibition; in vitro processive DNA synthesis, absorbance read-out; active compounds read low; some inactives read as strong as hits; normalized absorbance, % (test concentration not listed); 0.94% of 46,000 active; AID 493162;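 active = replicate mean up to 90% and picked by the depositor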;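 also: 100% = median of the test wells of a plate; 100 nL library stock went into each well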
Starred values were filed as active, the others as inactive. Some of the compounds tested; count on the stated rates, not on these rows.

cpd	SMILES	VACV E9 pol inh
1	CCc1ccc(NC(=O)CSc2ncnc3c2sc2ccccc23)cc1	98.8
2	O=c1c(-c2ccc(Cl)cc2Cl)c(C(F)(F)F)oc2cc(O)ccc12	100.6
3	COc1ccc(C(=O)Nc2ccc(-n3nncc3-c3ccccc3)cc2)cc1	99.4
4	O=c1[nH]ccn(-c2ccccc2)c1=O	101.5
5	CC1CCC(C(=O)NC(C(=O)N2CCC3(CC2)OCCO3)C(C)C)CC1 (stereo unspecified)	97.8
6	CC(Sc1cccc[n+]1[O-])C(=O)Nc1cc(C(F)(F)F)ccc1Cl (stereo unspecified)	101.8
7	CN(C)C(=O)ONC(=O)Cc1ccccc1	103.3
8	CCOc1ccc(NC(=O)C2C3C=CC4(O3)C2C(=O)N(C(C)C)C4C(=O)NC2CCCCC2C)cc1 (stereo unspecified)	105.5
9	CC1=C(C(=O)Nc2ccccc2)C(c2ccc3c(c2)OCO3)C2=C(CC(C)(C)CC2=O)N1 (stereo unspecified)	100.1
10	CC(C)NC(=O)c1ccc(Cl)c(S(=O)(=O)Nc2ccc(Cl)cc2)c1	104.0
11	CN(C)c1ccc(NC(=O)Nc2cccc(Cl)c2)cc1	100.6
12	C=CCOc1ccc(/C(O)=C2/C(=O)C(=O)N(Cc3ccco3)C2c2ccccc2)cc1 (stereo unspecified)	111.4
13	CCOc1ccc(C=C2C(=O)OC(c3ccccc3)OC2=O)cc1 (stereo unspecified)	100.3
14	CCC(C)c1ccc(NC(=O)COC(=O)c2cccc(F)c2)cc1 (stereo unspecified)	97.7
15	CN1C(=S)N(C2CCCCC2)C(=O)/C1=C/c1ccccc1O	99.7
16	CCOC(=O)CSC1=N/C(=C/c2ccsc2)C(=O)N1c1ccccc1	99.0
17	Cc1cc(Nc2ccccc2)n2cnnc2n1	87.5
18	COc1ccc(C(c2ccc3cccnc3c2O)N2CCCC2)cc1 (stereo unspecified)	102.5
19	N#C/C(=C\NCc1cc(C(F)(F)F)cc(C(F)(F)F)c1)S(=O)(=O)Cc1ccco1	87.7
20	O=C(Oc1ccccc1/C=C1/N=C2CCCCCN2C1=O)c1ccccc1Cl	100.4
21	COc1ccc(OC)c(NC(=O)C2CCCNC2=O)c1 (stereo unspecified)	100.2
22	O=C(Cn1ncc2ccccc21)NC1CCCc2ccccc21 (stereo unspecified)	96.9
23	CCOC(=O)N1CCC(NC(=O)Cn2ncc3c2-c2cc(C)ccc2OC3)CC1	99.6
24	O=C1CON(c2ccc(Cl)c(Cl)c2)C(=O)N1	100.6
25	CCOC(=O)Cn1c(=O)oc2cc(S(=O)(=O)NCC3CCCO3)ccc21 (stereo unspecified)	99.1
26	CCc1cccc(CC)c1NC(=O)COC(=O)c1cccs1	89.1
27	CCOC(=O)CSc1nc2cc(Cl)c(Cl)cc2n1CC	100.5
28	COc1cccc(-c2nn3c(Cc4ccccc4)nnc3s2)c1	107.2
29	N=C1/C(=C/c2ccc(SCc3ccccc3)o2)C(=O)N=C2SC=CN12	99.1
30	COc1ccc(-c2csc(C(C#N)=C3CCCCC3)n2)cc1	97.8
31	COC(=O)C1=C(C)Nc2c(c(=O)n(C)c(=O)n2C)C1c1cccc(OCc2ccccc2)c1 (stereo unspecified)	99.9
32	C=CCn1c(=O)sc2ccccc2c1=O	88.1
33	Cc1cccc(N2C(N)=NC(N)=NC23CCCCC3)c1	100.2
34	O=C(COC(=O)c1cncc(Br)c1)Nc1ccccc1	105.5
35	Cc1cc(-c2ccccn2)n[nH]c1=O	108.4
36	CCOC(=O)/C=C(\C)Nc1ccc(CC)cc1	85.6
37	CCOc1ccc(NC(=O)CC(C)Cc2cc(C)cc(C)c2)cc1 (stereo unspecified)	100.0
38	CC(C)c1nnc(NC(=O)COc2ccc(Cl)cc2)s1	101.8
39	Cc1cc(C)c(C(=O)/C=C(\N2CCCC2)C(F)(F)F)c(=O)[nH]1	101.9
40	Cc1cccc2nc(CSc3nncn3-c3ccccc3)cn12	93.6
41	O=C(c1cc[n+]([O-])cc1)N1CCCCCC1	77.8
42	CCOC(=O)/C=C1\CC(=O)Nc2cc(C)c(C)cc2N1	99.9
43	CCNC(=O)c1cccc(OC)c1	97.9
44	COc1ccc(NC(=O)C2CSC(C)(C)N2C=O)cc1 (stereo unspecified)	99.3
45	CCOC(=O)c1cccc(NC2=NC3(CCCCC3)N=C(N)N2)c1	100.2
46	COc1ccc(/C=N/c2nc3ccccc3n2CCN2CCCCC2)cc1OC	99.9
47	CS(=O)(=O)NCCOc1ccccc1	100.7
48	O=C1NCC(NC(=O)C(F)(F)F)c2cc3c(cc21)OCO3 (stereo unspecified)	94.9
49	Cc1ccc(C2=NNC(C(O)C(O)C(O)C(C)O)S2)cc1 (stereo unspecified)	98.0
50	Cc1ccc(C(=O)Oc2ccc3oc(=O)sc3c2)cc1	100.2
51	O=C(CCN1CCCC1)Nc1ccc2c(c1)OCO2	101.7
52	O=C(O)CNC(=O)c1cccc(C(F)(F)F)c1	97.2
53	Cc1ccnc(NC(c2ccc(Cl)cc2)n2nc(C)cc2C)c1 (stereo unspecified)	100.6
54	Cc1cccc(-n2c(O)c(C3=c4ccccc4=NC3=O)sc2=S)c1	99.3
55	O=C(O)CSc1c2c(nc3cc(C(=O)NCc4ccc(F)cc4)ccc13)CCCC2	102.8
56	CCc1ccc(-c2nc3ccccc3c(=O)o2)cc1	100.4
57	CCN(CC)c1ccc(O)c(C=Nc2ccc(S(N)(=O)=O)cc2)c1	101.4
58	Cc1nn(CCC#N)c2nc(-c3ccccc3)cc(C(F)(F)F)c12	99.2
59	CCc1ccc(OCCCC(=O)Oc2ccc3c(c2)oc(=O)c2ccccc23)cc1	100.1
60	c1ccc(OC2OCCOC2Oc2ccccc2)cc1 (stereo unspecified)	93.6

(list continues)
cpd	SMILES	VACV E9 pol inh
61	NC(=O)CSc1nnc(-c2ccc(Cl)cc2Cl)n1C1CCCCC1	97.3
62	COc1ccc(NC(=O)CC2(CC(=O)O)CCCC2)cc1	99.8
63	COc1cc(NS(=O)(=O)c2ccc(N)cc2)ncn1	100.5
64	COc1ccc(/C=C/C(=O)Nc2ccc(S(=O)(=O)N3CCCC3)cc2)cc1	103.4
65	Cc1onc(-c2c(Cl)cccc2Cl)c1NC(=O)OCCOc1cc(C(F)(F)F)ccn1	99.5
66	Cc1nc2c(ccc3nc(NC(=O)c4cccc(Oc5ccccc5)c4)sc32)s1	100.4
67	CCCCC/C=C\C/C=C\C/C=C\C/C=C\CCCC(=O)NCCO	100.4
68	Nc1ccc(N=Nc2ccccc2)c(N)n1	101.2
69	CSC(=Nc1ccc(Cl)cc1)NC#N	100.1
70	Cc1cc(C(=O)OCCN2CCN(C3=NS(=O)(=O)c4ccccc43)CC2)c2ccccc2n1	100.7
71	O=C(O)C1(S(=O)(=O)c2ccccc2)CC1	100.2
72	CC1CN=C(NS(=O)(=O)c2ccccc2)N1 (stereo unspecified)	101.8
73	COc1ccc(C(=O)COc2ccc3c(C)c(Cl)c(=O)oc3c2)cc1	96.3
74	CCOc1ccc(CCNc2ncnc3c2nc2n3CCCCC2)cc1OCC	97.5
75	CCOC(=O)C(C)Sc1ncnc2nc[nH]c12 (stereo unspecified)	88.3
76	COc1ccccc1OCCn1cc(/C=C2/SC(=S)NC2=O)c2ccccc21	100.0
77	O=C(CCCn1c(=S)[nH]c2c(sc3ccccc32)c1=O)NC1CCCCCC1	99.3
78	Cc1noc(C)c1-c1nc(CS(=O)(=O)Cc2ccc(Cl)cc2)no1	99.9
79	O=C(/C=C/c1ccco1)Oc1cccc(Oc2ccccc2)c1	98.5
80	O=C1NC(c2ccccc2)(C(F)(F)F)SC2=NCCCN12 (stereo unspecified)	100.1
81	Cc1oc2c(c1C(=O)N1CCc3ccccc3C1)C(=O)c1ccccc1C2=O	97.9
82	CCOC(=O)C1CCN(C(=O)/C=C/c2ccc(F)cc2)CC1	105.5
83	CC(C)c1ccc(NC(=S)Sc2ccc(F)cc2F)cc1	100.4
84	CC1(C)CC(=O)C2=C(C1)C(c1cccnc1)Nc1ccc3ccccc3c12 (stereo unspecified)	100.1
85	COc1ccccc1C(=O)Nc1nn2c(-c3ccccc3C)nnc2s1	95.9
86	N#Cc1cccc(CSc2nnc(SCc3cccc(C#N)c3)s2)c1	89.8
87	Brc1ccc(C=Nc2cccc3ccccc23)s1	100.4
88	CC[n+]1ccc(/C=C/c2ccc(OC)c(OC)c2OC)cc1	99.1
89	Cc1ccc(C)c(N2CCN(CCCNC(=O)c3nnc(Cc4c(F)cccc4Cl)o3)CC2)c1	101.6
90	O=C(Nc1ccccc1)/C(=C/c1ccccc1)NC(=O)c1ccccc1	99.2
91	Cc1nc2cc(-c3ccccc3)nn2c(C)c1CCC(=O)N1CCCC1	96.8
92	CCn1cc(SCC(=O)N2CCc3ccccc32)c2ccccc21	97.2
93	Cc1cccc(N2CCN(C(=O)CC3(CC4=NS(=O)(=O)c5ccccc5N4)CCCC3)CC2)c1C	100.2
94	NC(=O)Cn1nnc2sc3c(c2c1=O)CCCC3	99.7
95	CCSc1nc(C(F)(F)F)c(C(=O)c2ccccc2)cc1C#N	100.9
96	COc1ccc(-c2noc(NCCCN3CCCC3=O)n2)cc1OC	108.9
97	CN1CCN(CC(O)(c2ccc(F)cc2)c2ccc(F)cc2)CC1	114.4
98	CC(=O)OCC(=O)Nc1ccccc1C#N	99.2
99	Cc1ccc(NC(=O)c2ccccc2)s1	100.7
100	COC(=O)NC(=C(Cl)Cl)c1ccc(C)c(F)c1	92.7

Shown as labelled records: four of the compounds above
#81 Cc1oc2c(c1C(=O)N1CCc3ccccc3C1)C(=O)c1ccccc1C2=O
- VACV E9 pol inh: 97.9
#89 Cc1ccc(C)c(N2CCN(CCCNC(=O)c3nnc(Cc4c(F)cccc4Cl)o3)CC2)c1
- VACV E9 pol inh: 101.6
#86 N#Cc1cccc(CSc2nnc(SCc3cccc(C#N)c3)s2)c1
- VACV E9 pol inh: 89.8
#100 COC(=O)NC(=C(Cl)Cl)c1ccc(C)c(F)c1
- VACV E9 pol inh: 92.7

(list continues)
cpd	SMILES	VACV E9 pol inh
101	Cc1cc(C(=O)N2CC(C)CC(C)C2)n[nH]1 (stereo unspecified)	96.6
102	COc1cccc(-c2nc(-c3ccccc3)[nH]c2-c2cccc(OC)c2)c1	99.7
103	CC(=O)Nc1c(-c2ccccc2)c2cc(Br)ccc2[nH]c1=O	100.3
104	CCCc1nnc(NC2CCCC2)s1	100.6
105	CC1=NNC(c2ccc(O)cc2)C1 (stereo unspecified)	99.7
106	CC(NC(=O)Cc1ccc(F)cc1)C(c1cccs1)N1CCN(C)CC1 (stereo unspecified)	99.9
107	CN(C)C(=S)Nc1ccc(S(=O)(=O)N2CCCCC2)cc1	101.8
108	CS(=O)CCNC(=O)Nc1ccc(Cl)c(Cl)c1 (stereo unspecified)	101.9
109	[O-]/[N+](=C\c1ccncc1)c1ccc(Cl)cc1	79.6
110	CN1C(=O)C(=Cc2cccn2-c2ccc(N(C)C)cc2)C(=O)N(C)C1=S	99.4
111	COc1ccc(-c2ncc3ccccn23)cc1OC	100.2
112	Cc1ccccc1Cn1cc(S(=O)(=O)CC(=O)Nc2ccc3c(c2)OCCO3)c2ccccc21	102.1
113	CN1CCN(C(=O)COc2ccc(Oc3ccccc3)cc2)CC1	100.3
114	Cc1[nH]c2ccccc2c1C(=O)COc1ccccc1	97.4
115	O=C(CCn1c(=O)c2ccccc2n(Cc2ccccc2)c1=O)NCc1ccc2c(c1)OCO2	82.0
116	CCOC(=O)N1CCC(NC(=O)CCc2c(C)nc3c(-c4ccc(F)cc4)c(C)nn3c2C)CC1	101.7
117	O=C1CN(C(=O)/C=C/c2ccccc2)C(c2ccccc2)c2cc(Br)ccc2N1 (stereo unspecified)	100.1
118	CC1CC(C)CN(c2ccc(NC(=O)c3ccc(Cl)cc3)cc2C(=O)O)C1 (stereo unspecified)	71.1
119	Cc1cc(F)ccc1S(=O)(=O)Nc1ccc(C(=O)N2CCCCCC2)cc1	91.8
120	Clc1cccc(N2CCN(c3c4c(nc5ccc(Cl)cc35)CCC4)CC2)c1	103.1
121	CCOC(=O)c1c(NC(=O)c2ccco2)sc2c1CCCC2=O	99.7
122	Cc1cccc(NCc2ccccc2O)c1	99.7
123	O=c1[nH]c(=S)[nH]c(C(F)(F)F)c1Cc1ccc(Cl)c(Cl)c1	101.4
124	O=S1(=O)CCC(NC(=S)S)C1 (stereo unspecified)	93.2
125	S=C(NCCc1ccccc1)N1CCc2ccccc21	93.6
126	CCc1ccc(CN2CCN(Cc3ccc(CC)cc3)CC2)cc1	100.0
127	CC(C)(C)n1c(O)c(/C=C2\C=c3ccccc3=N2)c(=O)[nH]c1=O	92.9
128	O=C1c2nc3cc(-c4ccccc4)[nH]n3c(=O)c2CN1C1CCCCC1	110.7
129	O=C(Nc1ccc(Cl)cc1)Nc1nc(-c2ccccc2)cs1	99.8
130	O=C(O)CSCc1ccc(Br)cc1	102.6
131	O=C(Nc1cc(C(F)(F)F)cc(C(F)(F)F)c1)C(=S)N1CCCCC1	85.0
132	Cc1sc2ncnc(SCC(=O)c3ccccc3)c2c1C	100.6
133	C[N+]1(C)C2CC[C@H]1CC(OC(=O)C(O)c1ccccc1)C2 (stereo partly specified)	102.0
134	CC(=O)[C@H]1CCC2C3CCC4=CC(=O)CC[C@]4(C)C3CC[C@@]21C (stereo partly specified)	99.1
135	CCOC(=O)c1cnn(C)c1NS(=O)(=O)c1ccc(Cl)cc1	99.5
136	CCO/C=C1\C(=O)N(c2ccc(C)cc2C)C(=O)c2cc(OC)ccc21	102.9
137	CC1(C)CCCC2=C1CC1C(=O)N(CCC[N+](C)(C)C)C(=O)C1C2 (stereo unspecified)	99.5
138	CC(C)(C)c1cc(C(=O)Oc2ccc(Cl)cc2)n(Cc2ccccc2)n1	99.3
139	Cc1ccc(C)n1C(CC(=O)O)C1CCCCC1 (stereo unspecified)	70.3*
140	Nn1c(CCCc2nc3ccccc3c(=O)n2N)nc2ccccc2c1=O	100.2
141	CCOc1ccc(-n2c(-c3nn(C)cc3Cl)n[nH]c2=S)cc1	100.5
142	CCC1CC(CSc2ncn[nH]2)OC1=O (stereo unspecified)	101.5
143	COc1cccc(OC)c1C(=O)Nc1ccccn1	99.9
